Source: PubChem BioAssay
GLA inh pH 4.5 – qHTS Assay for Inhibitors of Human alpha-Galactosidase at pH 4.5. Alpha-galactosidase A (Homo sapiens), P06280. purified enzyme, 4-MU-alpha-Gal fluorescence, pH 4.5. activity change, negative = inhibition, % at 105 µM. 230,000 tested, under 10 active. AID 1467, 2008; inconclusive = small, poorly fitted or top-dose-only inhibition, or a rising curve; inactive = flat fitted curve, though single readings scatter; no compound was filed as active;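 also: 0% = full activity with enzyme and -100% = basal without enzyme; dose as in the result columns while the protocol names 77 µM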
miR-21 FLuc – qHTS Assay for Modulators of miRNAs and/orActivators of miR-21 | HeLa miR-21 FLuc reporter, luciferase, 48 h | Potency, µM (top dose mostly 38.3 µM), for inactives: top-dose reporter change, positive = more light | 340,000 tested, under 10 active | AID 2288, 2010; active = well fitted rising curve with a large enough effect; inconclusive = small, poorly fitted or top-dose-only effect; inactive = no such curve, though single readings can be large or run the other way;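 also: % of control where 0% means no effect; miR-21 action dims this reporter so a rising signal means less miR-21 action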
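Compounds were titrated across several concentrations (up to approximately 40 uM) and incubated 48 hours with HeLa miR-21-FLuc reporter cells (miR-21 target sequence downstream of FLuc, endogenous miR-21). Readout was firefly luciferase luminescence after lytic detection reagent.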
Rango release inh – qHTS Assay for Inhibitors of RanGTP induced Rango (Ran-regulated importin-beta cargo) - Importin beta complex dissociation; Biochemical FRET Rango-importin beta, RanGTP-induced dissociation; Potency, µM (series often up to 46.1 µM), without a hit: top-dose activity change, negative = inhibition; 340,000 tested, 0.071% active; AID 540253, 2011; active means falling FRET ratio curve, often poorly fitted, with flat reads before Ran was added; inconclusive means other falling curves, or compound fluorescence or quenching; inactive means flat or rising ratio curve;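 also: potency is read from the fitted curve at half-maximal effect; % of control where 0% means no effect; nearly all actives have a fitted effect of over 45% in size; -100% = wells without RanGTP and RCC1; the record marks most hits as doubtful in a second field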
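Compounds sat 5 min at room temperature with 0.1 uM Rango biosensor plus 0.25 uM importin beta, then FRET pre-read. RanGTP-RCC1 (0.6 uM Ran, 2mM GTP, 0.2 uM RCC1) added for 45 min, and the CFP/YFP post-read measured blocked complex dissociation.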
Rango complex inh – qHTS Assay for Inhibitors of Rango (Ran-regulated importin-beta cargo) - Importin beta complex formation; Importin subunit beta-1 (Homo sapiens), Q14974; Rango CFP/YFP FRET sensor + importin beta, 45 min; Potency, µM (highest dose often 92.2 µM), for the others: top-dose inhibition of complex formation; 340,000 tested, 0.031% active; active = rising FRET ratio curve, often small or poorly fitted; inconclusive = mostly compound fluorescence or quenching in the first reads; inactive = flat curves in all reads;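 also: potency is read from the fitted curve at half-maximal effect; 0% = DMSO wells and 100% = buffer wells lacking importin beta; nearly all actives have a fitted effect of over 15% in size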
Target sequence (Q14974 whole entry, looked up): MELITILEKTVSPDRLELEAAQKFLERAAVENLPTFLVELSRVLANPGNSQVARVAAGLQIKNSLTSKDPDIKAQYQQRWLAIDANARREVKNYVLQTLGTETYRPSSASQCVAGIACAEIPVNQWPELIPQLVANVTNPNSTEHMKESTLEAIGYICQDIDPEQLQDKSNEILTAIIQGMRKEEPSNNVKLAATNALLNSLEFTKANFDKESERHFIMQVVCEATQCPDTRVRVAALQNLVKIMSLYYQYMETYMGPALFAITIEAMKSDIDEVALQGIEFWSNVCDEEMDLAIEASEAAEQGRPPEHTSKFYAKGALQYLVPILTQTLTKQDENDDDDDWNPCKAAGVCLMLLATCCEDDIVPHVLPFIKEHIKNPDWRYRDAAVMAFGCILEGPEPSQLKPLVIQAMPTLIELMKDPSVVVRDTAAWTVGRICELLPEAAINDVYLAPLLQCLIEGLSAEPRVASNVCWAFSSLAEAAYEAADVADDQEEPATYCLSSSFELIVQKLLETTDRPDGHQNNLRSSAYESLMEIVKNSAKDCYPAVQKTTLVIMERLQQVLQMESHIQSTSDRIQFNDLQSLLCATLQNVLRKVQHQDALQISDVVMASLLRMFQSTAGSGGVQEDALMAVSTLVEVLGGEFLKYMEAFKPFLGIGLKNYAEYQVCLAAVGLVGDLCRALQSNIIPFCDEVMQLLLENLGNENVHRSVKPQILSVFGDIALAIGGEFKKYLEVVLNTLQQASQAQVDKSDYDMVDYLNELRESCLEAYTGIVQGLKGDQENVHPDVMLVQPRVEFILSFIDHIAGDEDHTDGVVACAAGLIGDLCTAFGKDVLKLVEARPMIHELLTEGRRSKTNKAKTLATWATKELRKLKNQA
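FRET biosensor Rango (snurportin 1 IBB between N-terminal EYFP and C-terminal Cerulean), 50 nM in PBS/1 mM DTT/0.02% Tween-20/0.1% BSA, preincubated 5 min RT with compound; 0.125 microM importin beta added, 45 min RT, CFP/YFP FRET ratio read.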
Numbers without * were called inactive; ? = inconclusive; nt = no result given; & = joins results of further samples. The list is partial; rates above refer to the full screens.

SMILES	GLA inh pH 4.5	miR-21 FLuc	Rango release inh	Rango complex inh
COc1cc(OC)c(C2=NOC(C(=O)N3CCc4ccccc4C3)C2)cc1Cl (stereo unspecified)	-9	-10%	-17%	0.9%
O=C(Nc1cccc([N+](=O)[O-])c1)C1COc2ccccc2O1 (stereo unspecified)	nt	-23%	0%	-0.4%
COCCn1c(C)cc(C(=O)CSc2nc(C)cc(C)c2C#N)c1C	-3	-13%	?	?
COC(=O)Cn1c(=O)c2c(n(Cc3ccccc3)c1=O)N/C(=C/c1ccc(OC)cc1)C2=O	-2	-2%	?	?
COc1ccc(OC)c(S(=O)(=O)N2CCCC(C(=O)NC3CC3)C2)c1 (stereo unspecified)	nt	nt	-12%	-3.9%
COc1ccc(NC(=O)C=C(C)C)cc1Cl	4	-50%	8%	1.1%
COc1cccc(C2C3=C(CC(C)(C)CC3=O)Nc3cc(OC)c(OC)cc32)c1 (stereo unspecified)	6	-5%	-5%	-3.8%
CCC(=O)c1cc2c(C)cc(=O)oc2c(C)c1OC(=O)C(C)C	1	1%	?	?
CN(C)c1ccc(CNC(=O)CCc2ccc(S(=O)(=O)N3CCCCCC3)cc2)cc1	nt	nt	4%	0.3%
CCCOc1ccc(C(=O)c2ccccc2C(=O)OC2CCOC2=O)cc1OCCC (stereo unspecified)	nt	nt	3%	0.3%
Cc1cc(=O)oc2c(C)c(OC(C)C(=O)NCCCn3ccnc3)ccc12 (stereo unspecified)	nt	0%	15%	5.4%
CC/C(=C(/CC)c1ccc(O)cc1)c1ccc(O)cc1	-2&-10	1%	-2%	-0.5%

Some of these compounds in order of their number in Rango complex inh, ascending:
molecule	GLA inh pH 4.5	miR-21 FLuc	Rango release inh	Rango complex inh
O=C(Nc1cccc([N+](=O)[O-])c1)C1COc2ccccc2O1 (stereo unspecified)	nt	-23%	0%	-0.4%
CN(C)c1ccc(CNC(=O)CCc2ccc(S(=O)(=O)N3CCCCCC3)cc2)cc1	nt	nt	4%	0.3%
COc1ccc(NC(=O)C=C(C)C)cc1Cl	4	-50%	8%	1.1%

The results go on:
SMILES	GLA inh pH 4.5	miR-21 FLuc	Rango release inh	Rango complex inh
CCOC(=O)Cc1cc(C)[nH]c1C(=O)OCC	0	-3%	14%	0.5%
Cc1cccc(NC(=O)c2cc(S(=O)(=O)N3CCc4ccccc43)cn2C)c1	nt	0%	7%	?
CN(C)/C=C1/Oc2c(ccc3ccccc23)C1=O	-1	-3%	-20%	?
COc1ccc(OC)c(-n2c(C)nc3cc(C(=O)O)ccc32)c1	-2	-4%	3%	1.2%
NC(=O)CSc1nnc(-c2ccc(O)cc2)n1Cc1ccco1	1	-3%	6%	-3.4%
Cc1c(CCC(C)C)c(=O)n2c([nH]c3ccccc32)c1C#N	16	-6%	-5%	0.8%
Cc1ccc(S(=O)(=O)N2CCOCC2)cc1NC(=O)CSc1ncccn1	nt	nt	13%	0.0%
Cc1cc(C)n2nc(C(=O)Nc3ccc(S(=O)(=O)N(C)C)cc3)nc2n1	7	-8%	4%	4.3%
CO/N=C/C(c1ccc(Cl)nc1)S(=O)(=O)c1ccccc1 (stereo unspecified)	nt	-1%	20%	0.9%
Oc1ccc2ccccc2c1/C=N/n1cnnc1	-14	-1%	?	?
COc1ccc(Br)cc1CN(C)CC(=O)NCCc1ccc(S(N)(=O)=O)cc1	nt	9%	-7%	-5.5%
CN(Cc1cccs1)C(=O)c1cc(S(=O)(=O)N2CCOCC2)ccc1F	nt	nt	-1%	-3.5%

Some of the entries so far, with two lines to a compound:
Order of results: GLA inh pH 4.5	miR-21 FLuc	Rango release inh	Rango complex inh
- Cc1c(CCC(C)C)c(=O)n2c([nH]c3ccccc32)c1C#N
  16	-6%	-5%	0.8%
- Cc1ccc(S(=O)(=O)N2CCOCC2)cc1NC(=O)CSc1ncccn1
  nt	nt	13%	0.0%
- Cc1cc(C)n2nc(C(=O)Nc3ccc(S(=O)(=O)N(C)C)cc3)nc2n1
  7	-8%	4%	4.3%
- CO/N=C/C(c1ccc(Cl)nc1)S(=O)(=O)c1ccccc1 (stereo unspecified)
  nt	-1%	20%	0.9%
- Oc1ccc2ccccc2c1/C=N/n1cnnc1
  -14	-1%	?	?
- COc1ccc(Br)cc1CN(C)CC(=O)NCCc1ccc(S(N)(=O)=O)cc1
  nt	9%	-7%	-5.5%
- CN(Cc1cccs1)C(=O)c1cc(S(=O)(=O)N2CCOCC2)ccc1F
  nt	nt	-1%	-3.5%

The listing continues:
SMILES	GLA inh pH 4.5	miR-21 FLuc	Rango release inh	Rango complex inh
COc1ccc(NC2=NCC(Cc3ccc(Br)cc3)S2)cc1 (stereo unspecified)	6	22%	11%	-0.5%
COc1cccc(-c2sc3ccc(OC)cc3c2-c2ccc(OCCN3CCOCC3)cc2)c1	nt	nt	-20%	4.5%
O=C(Nc1ccccc1C(=O)NCCCN1CCOCC1)c1ccccc1	nt	0%	-6%	0.2%
CCOc1ccc(C(O)(CCC(C)C)C(CN2CCOCC2)c2ccccc2)cc1 (stereo unspecified)	nt	16%	29%	?
O=C(NC1CCN(S(=O)(=O)c2ccc(Cl)cc2)CC1)C1CCCCC1	nt	0%	-8%	-1.8%
COc1ccc(C2SCCN2S(=O)(=O)c2ccc(F)cc2)cc1OC (stereo unspecified)	-3	-3%	1%	-5.0%
O=C(NCCCO)/C(=C\c1cn(-c2ccccc2)nc1-c1cccnc1)NC(=O)c1ccccc1	-15	-7%	-12%	-0.2%
Cc1ccc(C2C3=C(CC(C)(C)CC3=O)Nc3[nH]c(=S)[nH]c(=O)c32)cc1 (stereo unspecified)	-6	1%	-13%	-5.0%
CCOC(=O)c1cnc(SCc2nc(N)nc(Nc3ccccc3OC)n2)nc1N	10	-10%	nt	nt
COc1ccccc1NC(=O)Cn1c([N+](=O)[O-])cnc1C	nt	1%	19%	5.0%
CCCOc1c(Br)cc(C2C3=C(CCCC3=O)N(C)C3=C2C(=O)CCC3)cc1OC	-3	-5%	?	?
COc1cccc(C(=O)N2CCN(C(=O)Cc3ccccc3)CC2)c1	-3	-1%	2%	-3.2%
CCc1ccc(N(CC)C(=O)c2ccc3c(Cl)c4c(nc3c2)CCC4)cc1	-9	-2%	-1%	2.3%
Cc1nc(C)c(-c2ccn(C(=O)NC(C)C)n2)s1	10	-12%	-9%	0.0%
CCOC(=O)CSc1nc(NCc2ccco2)c2ccccc2n1	-3	-6%	-22%	-0.1%
COc1ccc(S(=O)(=O)NCCC(=O)N2CCCC2)cc1N(C)S(C)(=O)=O	nt	-2%	21%	0.6%
COc1ccc(C(=O)NCCc2ccccc2)cc1[N+](=O)[O-]	nt	-33%	10%	-3.1%
O=[N+]([O-])c1cc(/C=N/N2CCN(C3c4ccccc4-c4ccccc43)CC2)ccc1Cl	9	-2%	-7%	3.0%
Cc1ccc(-n2c(C)cc(C3N=C(N)Nc4nc5ccccc5n43)c2C)c(C)c1 (stereo unspecified)	-7	7%	6%	3.3%
Cc1cccnc1NC(=O)c1c(O)c2ccccc2n(C)c1=O	-13	-16%	-4%	1.0%
CCOC(=O)c1cccc(NC(=O)Nc2ccc(OCC)cc2)c1	-23	-16%	0%	0.8%
Cc1ccc2c(=O)c(C(=O)NCc3cccs3)c[nH]c2c1	-7	-47%	1%	2.7%
COc1cc(OC)c(C2CC(=O)N3CN(c4ccc(C)cc4)CSC3=C2C#N)cc1OC (stereo unspecified)	-1	-19%	-16%	?
Cc1cccc(N(C)c2ccc3cc(S(=O)(=O)N4CCCC4)ccc3n2)c1	nt	-3%&-2%	-4%	1.6%
CCc1ccccc1NC(=O)CN1CCN(C(=O)c2cccc(-n3cnnn3)c2)CC1	nt	nt	17%	2.3%
CCCCN1C(=O)C(=O)N(CC(=O)Nc2sc(CC)cc2C(=O)OCC)C1=O	nt	nt	7%	2.0%
COc1ccccc1-c1nnc(SC2CCc3ccccc3NC2=O)s1 (stereo unspecified)	-3	-11%	-4%	3.5%
O=C(NCc1ccc(F)cc1)c1cc(S(=O)(=O)N2CCCCC2)ccc1Cl	nt	nt	1%	?
CCc1ccc(NC(=O)CN(c2cc(C)cc(C)c2)S(=O)(=O)c2c(C)[nH]c(=O)[nH]c2=O)cc1	nt	-4%&-10%	-5%	-1.3%
CCN(CC(=O)NC1CCS(=O)(=O)C1)c1ccc(S(=O)(=O)N(CC)CC)cc1[N+](=O)[O-] (stereo unspecified)	nt	nt	-25%	4.8%
c1ccc(-n2ncc3c2ncn2nc(CSc4nc5ccccc5s4)nc32)cc1	-8	-1%	3%	1.8%
Cc1ccc(Cc2nnc3n(-c4cccc(C)c4)nc(C(=O)c4ccccc4)n3c2=O)cc1	-9	-6%	-7%	0.0%
N#Cc1ccccc1S(=O)(=O)N1CCN(C(=O)CN2CCCC2c2cccs2)CC1 (stereo unspecified)	nt	nt	11%	-2.1%
C/C(=N\Nc1cccc([N+](=O)[O-])c1)c1cc2ccccc2o1	7	-54%	-6%	0.6%
CNC(=O)c1ccc(C)c(NC(=O)C2=C(C)OCCS2)c1	nt	0%	-15%	-0.4%
CC(C)C(=O)NNC(=O)CSc1nnnn1C(C)C	10	0%	28%	-4.4%
COC(CNC(=O)c1cn(C)c2ccc(S(=O)(=O)N(C)C3CCCCC3)cc2c1=O)OC	nt	4%	13%	3.6%
NNC(=O)c1ccc2ccccc2n1	3	-3%	-28%	-3.8%
CCC(CC)C(=O)NN(C(=O)c1ccncc1)C1CC(=O)N(c2ccccc2)C1=O (stereo unspecified)	-16	-7%	-3%	1.9%
CCC(=O)Nc1nonc1-c1nc2ccccc2n1CCC(C)C	-6	2%	-9%	-1.3%
Nc1ccc(C(=O)Nc2cccc(NC(=O)c3ccc(N)cc3)c2)cc1	nt	6%	3%	-0.8%
C=CCNc1ncnc2c1ncn2C1OC(CO)C(O)C1O (stereo unspecified)	-1	-15%	-4%	-0.1%
CN(C)S(=O)(=O)c1cccc(NC(=O)c2cc3c(=O)n4ccccc4nc3s2)c1	-1	-2%	?	-0.2%
CC(C)[C@H](NC(=O)OCc1ccccc1)C(=O)OCC(=O)Nc1ccc(N2CCOCC2)cc1	nt	nt	25%	-1.6%
CC(=O)NC(c1ccco1)c1cc(F)c2cccnc2c1O (stereo unspecified)	nt	nt	-16%	?
COc1ccc(CCNC(=O)C(=O)c2c[nH]c3ccccc23)cc1OC	nt	-13%	12%	1.5%
COc1ccc(S(=O)(=O)Nc2ccc3c(c2)CC(=O)N([C@@H](C)CO)C[C@H](C)[C@@H](CN(C)S(=O)(=O)c2ccc(F)cc2)O3)cc1	nt	nt	0%	1.1%
COC(=O)c1nc(-c2ccccc2)oc1N(C)C	2	-15%	-12%	3.4%
CCOC(=O)c1cnc2c(ccc3ccccc32)c1Cl	nt	-24%	-6%	2.4%
CS(=O)(=O)c1cccc(C(=O)Nc2ccccc2Cc2ccccc2)c1	nt	-1%	-14%	-3.8%
CCOC(=O)Cc1csc(NC(=S)NC(=O)c2ccc(Cl)cc2)n1	-1	9%	13%	0.5%
COc1ccc(-c2onc3ccc(Br)cc23)cc1	1	-13%	-7%	?
Cc1ccc(OCC(=O)Nc2ccccc2Sc2ccc(Cl)cc2)c([N+](=O)[O-])n1	-11	1%	9%	1.1%
CCN(c1ccccc1)S(=O)(=O)c1ccc(F)cc1	-6	0%	-5%	-2.4%
O=C(CCn1cnc2ccccc2c1=O)Nc1cccc(Cl)c1Cl	-2	-2%	10%	-2.8%
CCC(=O)N1CCc2cc(S(=O)(=O)NCCC(=O)NCc3ccc(F)cc3)ccc21	nt	-2%	9%	0.0%
